gsp agonist: qHTS for Agonist of gsp, the Etiologic Mutation Responsible for Fibrous Dysplasia/McCune-Albright Syndrome: qHTS | AID 624287, 2012 | gsp mutant cells, cAMP HTRF, 30 min; control for the full effect not named in the record | actives 0.13% (n = 340,000) | Potency, µM (highest dose often 76.9 µM), without a hit: top-dose activation (cAMP increase), hits mostly activators; active = well fitted activation curve with a large enough effect; inconclusive = small, poorly fitted or top-dose-only effect, or another doubt; inactive = no such curve, though single readings can be large or run the other way; cell line not stated here;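 further: phosphodiesterase inhibitor Ro 20-1724 added with compounds to block cAMP breakdown; potency means the concentration at half of the fitted maximal effect; nearly all actives have a fitted effect of over 60% in size; about a fifth of the inactives were tested at one dose only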
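Cells in DMEM/10% FBS with G418 were pretreated with compounds in DMSO plus […] (300 uM stock) for 30 min at 37C. cAMP was measured by HTRF (cAMP-d2 plus anti-cAMP antibody-K) after 30 min at room temperature.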
gsp antag: qHTS for Antagonists of gsp, the Etiologic Mutation Responsible for Fibrous Dysplasia/McCune-Albright Syndrome: qHTS; actives 0.4% (n = 340,000); Potency, µM (top dose mostly 76.9 µM), for inactives: at the top dose activity change, negative = inhibition, usual class: inhibitors; gsp-mutant cells, cAMP HTRF, 30 min; control for the full effect not named in the record; active = falling curve of any shape with a large fitted effect; inconclusive = falling curve, mostly with a smaller effect; inactive = flat or rising curve; cell line not stated here;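 further: intracellular cAMP measured with PDE inhibitor Ro 20-1724 present during compound exposure; potency means the concentration at half of the fitted maximal effect; on the % scale 0 is the no-effect control and ±100 the full control effect; nearly all actives have a fitted effect of over 65% in size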
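HTRF cAMP read-out (cAMP-d2 plus anti-cAMP antibody-K in lysis buffer, 30 min RT). Before lysis, cells are exposed to compounds with […] for 30 min at 37C in DPBS containing Ca/Mg, BSA and Tween 20.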
TRPV1 potentiator: HTS Assay for Compounds that Act as Potentiators of the Vanilloid Receptor 1; AID 540277, 2011; potentiation, % at 8.33 µM; TRPV1-expressing cells, Fluo-8 calcium influx, capsaicin EC20 potentiation; host cell line not named in the record; control for the full effect not named in the record; Transient receptor potential cation channel subfamily V member 1 (Homo sapiens), Q8NER1; actives 0.02% (n = 320,000); active means potentiation above 80%; inconclusive means 30% to 80%; inactive means below 30%; further: 0% is about no effect
Target sequence (Q8NER1 whole entry, looked up): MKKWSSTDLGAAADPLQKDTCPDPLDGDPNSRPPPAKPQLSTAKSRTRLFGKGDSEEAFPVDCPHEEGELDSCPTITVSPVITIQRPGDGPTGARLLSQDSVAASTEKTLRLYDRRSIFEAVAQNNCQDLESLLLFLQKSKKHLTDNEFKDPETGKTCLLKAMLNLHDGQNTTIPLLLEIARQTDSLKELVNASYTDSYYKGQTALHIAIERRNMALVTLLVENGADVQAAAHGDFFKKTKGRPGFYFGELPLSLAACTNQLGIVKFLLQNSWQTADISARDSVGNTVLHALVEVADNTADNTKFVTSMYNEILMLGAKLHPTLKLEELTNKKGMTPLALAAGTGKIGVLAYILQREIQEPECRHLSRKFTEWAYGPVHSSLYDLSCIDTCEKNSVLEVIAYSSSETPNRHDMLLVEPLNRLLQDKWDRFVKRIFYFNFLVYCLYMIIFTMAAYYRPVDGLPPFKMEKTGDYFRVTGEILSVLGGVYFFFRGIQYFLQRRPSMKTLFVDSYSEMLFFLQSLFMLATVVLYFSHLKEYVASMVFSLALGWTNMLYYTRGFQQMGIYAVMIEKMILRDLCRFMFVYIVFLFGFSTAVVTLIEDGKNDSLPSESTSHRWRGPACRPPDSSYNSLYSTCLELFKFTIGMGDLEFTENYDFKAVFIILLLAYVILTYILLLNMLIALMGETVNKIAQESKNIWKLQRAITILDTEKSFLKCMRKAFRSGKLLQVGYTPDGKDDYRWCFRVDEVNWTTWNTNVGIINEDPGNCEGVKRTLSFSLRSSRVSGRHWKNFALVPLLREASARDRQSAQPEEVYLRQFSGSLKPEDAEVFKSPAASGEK
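TRPV1-expressing cells were cultured overnight at 35.5C and loaded with Fluo-8 calcium dye for 40 to 90 min at room temperature. After a 10 s baseline, compound was added and calcium influx was read kinetically for 3 min (ex 480/em 520 nm).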
CtBP-E1A blk: qHTS Assay for Inhibitors of the CtBP/E1A Interaction; actives 0.49% (n = 340,000); AlphaScreen GST-E1A/His-CtBP binding, 1536-well; hits give low values; control for the full effect not named in the record; activity change, % (no concentration beside the values); CtBP / adenovirus E1A interaction (AlphaScreen); in the data active means activity change below about -65%; inconclusive means about -30% to -65%; inactive means above about -30%; further: on the % scale 0 is the no-effect control and ±100 the full control effect; compound concentration not given in the record
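In 5 uL wells, 23 nL compound meets equimolar GST-E1A and His-CtBP (5X stock 125 nM each) for 2 h, 37 °C. Beads (5X, 50 ug/mL) then 1 h, 37 °C, dark.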
Menin-MLL FL inh: qHTS Assay for Inhibitors Targeting the Menin-MLL Interaction in MLL Related Leukemias: Competition With Fluorescein Labeled MLL-derived Peptide. 290,000 tested, under 10 active. FP activity change, % at 61.4 µM. Fluorescence polarization, fluorescein-MLL peptide displacement from menin; inconclusive = falling polarisation curve, or a change in total fluorescence; inactive = total fluorescence flat and polarisation flat or rising; no compound was filed as active; the % refers to the polarisation; negative = inhibition;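 further: % of control where 0% means no effect; inhibitors lower the polarisation; unlabelled MLL peptide was the positive control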
Sfp inh: qHTS Assay for Inhibitors of Bacillus subtilis Sfp phosphopantetheinyl transferase (PPTase). 4'-phosphopantetheinyl transferase ffp (Bacillus subtilis), Q9F4F7. Biochemical Sfp PPTase activity, qHTS. Potency, µM, for inactives: max response, negative = inhibition, most hits filed as inhibitors. actives 3.5% (n = 310,000); active means well fitted inhibition curve with a large enough effect; inconclusive means small, poorly fitted or top-dose-only effect, or another doubt; inactive means no such curve, though single readings can be large or run the other way;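 further: the enzyme is Sfp with the accession as filed and its product quenches rhodamine fluorescence; potency means the concentration at half of the fitted maximal effect; 0% = enzyme reaction without inhibitor and -100% = no enzyme wells; top concentration of the series not given in the record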
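Reaction rates are the 30-min fluorescence difference (ex 525, em 598 nm) in wells containing 15 nM Sfp, 5 uM rhodamine-CoA and 12.5 uM BHQ-2-YbbR at pH 7.6 with 10 mM MgCl2.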
ClpP mod: qHTS Assay for Activators of ClpP; Potency, µM (highest dose often 57.5 µM), inactives show at the top dose activity change, negative = active; actives 1.9% (n = 340,000); purified B. subtilis ClpP, FRET peptide cleavage, 20 min; active = well fitted falling curve with a large enough effect; inconclusive = small, poorly fitted or top-dose-only effect; inactive = no such curve, though single readings can be large or run the other way; further: potency means the concentration at half of the fitted maximal effect; the source files actives as falling curves though it sought activators and does not explain the sign; nearly all actives have a fitted effect of over 65% in size; many hits overshoot -100%
Target sequence (P80244 whole entry, looked up): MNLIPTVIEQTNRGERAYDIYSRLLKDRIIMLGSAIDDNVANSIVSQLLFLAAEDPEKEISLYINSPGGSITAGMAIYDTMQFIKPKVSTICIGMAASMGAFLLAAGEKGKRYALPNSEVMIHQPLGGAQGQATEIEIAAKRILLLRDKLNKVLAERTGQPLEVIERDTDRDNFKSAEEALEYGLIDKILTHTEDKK
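Purified B. subtilis ClpP, 10 microg/mL final in Tris/HCl pH8 with KCl, BSA, glycerol and Tween-20, cleaved an Abz/nitrotyrosine-quenched decapeptide. Fluorescence (ex 320, em 430) was read at 0 and 20 min at room temperature. Delta was normalized to 5.8 microM ADEP and DMSO/no-enzyme controls.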
Numbers without * were called inactive; i = inactive; ? = inconclusive; nt = not tested or not shown; & = joins results of further samples; [ ] = another dose, or the depositor's remark.

SMILES	gsp agonist	gsp antag	TRPV1 potentiator	CtBP-E1A blk	Menin-MLL FL inh	Sfp inh	ClpP mod
CC(=O)Nc1ccc(NC2=CC(=O)CC(C)(C)C2)cc1	1%	1%	?	6	0.8	-6%	-1.1%
CCOC(=O)c1ccc(NC(=O)CCn2nnc3ccccc32)cc1	-37%[inhibitor]	-12%	11	2	-2.1	2%	1.5%
COc1cc2c(cc1OC)[C@@H]1O[C@](CCCCN3C(=O)c4ccccc4C3=O)(C2)Oc2cc(C)n(-c3ccccc3)c(=O)c21	nt	nt	i	nt	0.9[11.7 µM]	-3%	nt
CC(=O)c1c(C(C)=O)c(C)n(NC(=O)c2ccccc2Cl)c1C	24%	4%	nt	-11	6.4	7%	-1.0%
Cc1ccc(C(=O)OCC(=O)N2CCC(C)CC2)cc1S(=O)(=O)N1CCCCC1	-3%[15.4 µM]	-7%	-25	-4	nt	6%	1.5%
O=C(COC(=O)CN1C(=O)NC2(CCCC2)C1=O)NCc1ccc(Cl)cc1Cl	-4%[15.4 µM]	4%	nt	-1	nt	nt	-0.7%
Cc1csc(NC(=O)CSc2nnc(Cn3c(=O)sc4ccccc43)n2-c2ccccc2)n1	16%	-8%	nt	-25	2.0	79µM*	-1.9%
CC(NC(=O)c1ccc(OC2CCN(Cc3ccccn3)CC2)cc1)c1nccs1 (stereo not given)	-28%	-2%	-2	5	nt	11%	1.0%
Cc1ccc(C)c2c1cc(C)c1nnc(SCC(=O)Nc3cccc(C(=O)O)c3)n12	?	-16%	8	2	-1.6	-14%	nt
CN(CCc1ccccc1)C(=O)c1cccc(NC(=O)Cc2cccc(NC(=O)C3CCCN(C(=O)c4ccccc4)C3)c2)c1 (stereo not given)	nt	-8%	nt	2	nt	nt	0.5%
COCCn1c(=O)[nH]c2cc(C(=O)N3CCN(c4ccc(Cl)cc4)CC3)ccc2c1=O	8%[15.4 µM]	-27%	1	0	-2.1	-7%	-2.5%
COc1ccc2cc(CCNC(=O)c3ccc4c(c3)OCO4)c(=O)[nH]c2c1	-14%	-11%	-2	-23	0.2	14%	5.4%
COc1cc(-n2c(=O)c3ccccc3n(CC(=O)c3ccc(F)cc3)c2=O)cc(OC)c1OC	-22%[15.4 µM]	-1%	-6	12	0.1	11%	nt
CCN(CC)c1ccc(/C=N/NC(=O)c2ccccn2)cc1	?	-2%	-2	-5	0.2	-16%	nt
COc1ccc(-c2coc3cc(OC4OC(CO)C(O)C(O)C4O)ccc3c2=O)cc1 (stereo not given)	?	13%	9	1	-11	20%	-1.9%
C=CCN(c1cccc(C(F)(F)F)c1)S(=O)(=O)c1cccc(C(=O)OCC(=O)NC(N)=O)c1	16%[15.4 µM]	-14%	-12	0	7.8	21%	-1.1%
O=C(CCc1nc2ccccc2c(=O)[nH]1)NNC(=O)c1ccc(F)cc1	16%	-4%	-4	1	nt	nt	-2.1%
O=C(CCSCCC(=O)NN=Cc1ccccc1)NN=Cc1ccccc1	-8%	4%	nt	28	nt	nt	nt
N#CC1=C(N)NC(SCC(=O)Nc2ccc(Br)cc2)=C(C#N)C12CCCCC2	-18%	?	6	8	2.8	16%	0.9%
CCSC1=NCCN1C(=O)Cc1ccc(-c2ccccc2)cc1	18%[15.4 µM]	-62%	7	-5	-1.0	4%	nt
CCOC(=O)CC1(C)SC(NC(C)=O)=NN1C(C)=O (stereo not given)	6%	10%	-13	nt	-0.7	-16%	-2.0%
CCc1ccccc1NC(=O)COc1cccc(-n2cnnn2)c1	27%	3%	-18	-9	nt	12%	nt
CCc1ccc(S(=O)(=O)Nc2cc3c(cc2N2CCCCC2)n(C)c(=O)c(=O)n3C)cc1	?	-27%	-6	-20	2.1	?	-0.5%
COc1ccc(N(C(=O)Cn2nnc(-c3ccc(F)cc3)n2)C(C)C(=O)NC2CCCC2)cc1OC (stereo not given)	9%[15.4 µM]	-11%	-1	17	-0.2	9%	-1.5%
COc1ccc2cc(CN(Cc3ccco3)Cc3nnnn3C3CCCCC3)c(=O)[nH]c2c1	13%	-26%	1	1	0.9	-13%	-6.8%

A run of entries of the results above, for reference:
SMILES	gsp agonist	gsp antag	TRPV1 potentiator	CtBP-E1A blk	Menin-MLL FL inh	Sfp inh	ClpP mod
CCc1ccccc1NC(=O)COc1cccc(-n2cnnn2)c1	27%	3%	-18	-9	nt	12%	nt
CCc1ccc(S(=O)(=O)Nc2cc3c(cc2N2CCCCC2)n(C)c(=O)c(=O)n3C)cc1	?	-27%	-6	-20	2.1	?	-0.5%
COc1ccc(N(C(=O)Cn2nnc(-c3ccc(F)cc3)n2)C(C)C(=O)NC2CCCC2)cc1OC (stereo not given)	9%[15.4 µM]	-11%	-1	17	-0.2	9%	-1.5%
COc1ccc2cc(CN(Cc3ccco3)Cc3nnnn3C3CCCCC3)c(=O)[nH]c2c1	13%	-26%	1	1	0.9	-13%	-6.8%

Going on with the list:
SMILES	gsp agonist	gsp antag	TRPV1 potentiator	CtBP-E1A blk	Menin-MLL FL inh	Sfp inh	ClpP mod
CS(C)(=O)=NS(=O)(=O)c1ccc(Cl)cc1	-29%	15%	-5	5	1.1	28%	1.6%
CC(=O)NCC(c1cccs1)S(=O)(=O)c1ccc(F)cc1 (stereo not given)	-32%	22%	-5	13	nt	9%	-0.2%
COC(=O)/C(=C/c1ccc2c(c1)c1ccccc1n2C)NC(=O)c1ccccc1	7%[15.4 µM]	-30%	?	-1	6.7	0%	0.4%
CCOC(=O)CCCNC(=O)CCNC(=O)c1ccc(OC(C)C)cc1	-13%	8%	-20	15	3.7	12%	0.7%
Cc1cc(C(=O)N2CCCC(N3CCN(c4ccccc4C)CC3)C2)n(C)n1 (stereo not given)	?	3%	4	10	nt	7%	-1.0%
O=C(O)C1C2CCC(C2)C1C(=O)NCCc1ccc(F)cc1 (stereo not given)	-25%	-1%	-5	5	-7.0	6%	nt
CC(C)c1ccc(N(C(=O)c2csnn2)C(C(=O)NC2CCCC2)c2ccncc2)cc1 (stereo not given)	23%	4%	-9	-3	3.0	22%	nt
CSc1ccccc1OCc1cc(C(=O)N(Cc2nccn2C)C(C)C)no1	-3%[15.4 µM]	6%	-2	4	nt	14%	1.0%
Cn1c(/C=C(\C#N)C(N)=S)ccc1-c1ccc(Br)cc1	-5%	6%	0	-15	8.5	3%	0.6%
COc1ccc(CNn2c(C)nc3ccccc3c2=O)cc1	-17%	9%	nt	-13	-0.1	-1%	-2.0%
O=C(CSc1nnnn1Cc1ccccc1)Nc1ccccc1	30%	3%	-17	0	-0.5	20%	-0.8%
Cc1nc2c(C)cccn2c1/C(O)=C1\C(=O)C(=O)N(CCN(C)C)C1c1ccco1 (stereo not given)	19%	4%	-1	4	2.1	-7%	nt
CC(=O)N1C(c2ccccc2O)C[C@]2(C)CC(=O)NC12 (stereo not given in full)	0%[15.4 µM]	6%	-3	-5	-3.3	4%	nt
Cn1ccnc1SCC(=O)c1ccc(Cl)cc1	25%	1%	-10	6	-0.4	?	nt
O=C(NCC1CCCO1)c1cnn2c(C(F)F)cc(C3CC3)nc12 (stereo not given)	?	-10%	1	0	nt	16%	-8.9%
COc1cc(OC)c(OC)cc1/C=N/n1c(C)nnc1C	-39%[inhibitor]	8%	3	0	0.0	14%	?
O=C(c1ccco1)N1CCN(CCOc2ccc(F)cc2)CC1	-22%	4%	-15	nt	-1.4	0%	0.7%
Cc1ccc(NC(=O)c2cccc(S(=O)(=O)N3CCN(C)CC3)c2)cc1F	2%	-3%	-1	-13	0.4	-2%	nt
CC(C)(C)N(Cc1ccccc1)C(=O)c1cccs1	-4%[15.4 µM]	-2%	20	3	-1.1	11%	-0.1%
Cn1c(-c2c(N)n(C3CCCC3)c3nc4ccccc4nc23)nc2ccccc21	34%	1%	10	42	?	21%	?
O=S(=O)(c1ccc(Cl)cc1)N1c2ccccc2Oc2nc3ccccc3nc21	10%	-8%	0	4	4.9	18%	2.1%
CCOC(=O)C1CCN(S(=O)(=O)c2ccc(CC)cc2)CC1	-2%[15.4 µM]	5%	-5	3	8.3	-3%	1.2%
O=C(CSc1nc2[nH]ncc2c(=O)[nH]1)c1ccccc1	3%[15.4 µM]	-1%	?	-17	-0.9	16%	nt
CCOC(=O)c1[nH]c2ccccc2c1NC(=O)NC(C)C	-6%[15.4 µM]	13%	-25	2	23	-17%	nt
CCOC(=O)CN1C(=O)CN(c2ccc(C)cc2)C1=O	5%	18%	-18	3	?	18%	2.5%
O=C1NC(=O)C(c2ccccc2)(c2ccccc2)N1S(=O)(=O)c1ccccc1	?	nt	nt	2	nt	nt	0.9%
CCCn1nc(C(=O)Nc2ccc(S(=O)(=O)Nc3nccs3)cc2)c2ccccc2c1=O	-14%	-14%	-3	-3	8.1	7%	25µM*
COc1cc(OC)cc(C(=O)Nc2ccc(S(=O)(=O)Nc3ncccn3)cc2)c1	?	-7%	-15	nt	0.3	18%	-2.2%&-3.6%
Cc1cc(C)c(C)c(OCC(=O)N2CCOCC2)c1	9%	7%	-20	2	3.4	3%	0.4%
COc1ccc(OC)c(N2C(N)=C(C#N)C(c3ccc(OC)c(O)c3)C3=C2CC(C)(C)CC3=O)c1 (stereo not given)	-4%[15.4 µM]	-4%	-1	4	-0.3	1%	nt

In a second layout: results already given
Molecule,gsp agonist,gsp antag,TRPV1 potentiator,CtBP-E1A blk,Menin-MLL FL inh,Sfp inh,ClpP mod
Cc1cc(C)c(C)c(OCC(=O)N2CCOCC2)c1,9%,7%,-20,2,3.4,3%,0.4%
Cc1ccc(NC(=O)c2cccc(S(=O)(=O)N3CCN(C)CC3)c2)cc1F,2%,-3%,-1,-13,0.4,-2%,nt
CCCn1nc(C(=O)Nc2ccc(S(=O)(=O)Nc3nccs3)cc2)c2ccccc2c1=O,-14%,-14%,-3,-3,8.1,7%,25µM*

Source: PubChem BioAssay
